# Source: PubChem BioAssay
# Beta apoptosis: blocks beta cell apoptosis; INS-1E cytokine-induced death, ATP luminescence, 48 h; percent of positive-control rescue, neutral wells zero; protection from apoptosis, % (concentration not given with the values); hit rate 0.8% among 300,000; AID 435005;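 active = all replicates at 75% or more, or half of them and the mean; inconclusive = half reach 75% but not the mean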;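 note: 0% = cytokine-treated negative control wells and 100% = positive control rescue; higher means more ATP so stronger rescue from cytokine killing; wells of about 40 µL received 100 nL stock; the first replicate is given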
# Ecoli rRNA inh: inhibitors of bacterial rRNA selective over humanized ribosomes; E. coli WT GFP vs humanized-ribosome RFP mutants, fluorescence, 24 h; active compounds read low; DMSO median 0, no signal -100; GFP signal change (wild-type ribosome), % (concentration not given with the values); hit rate 1.6% among 350,000; AID 720706;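 active = significant combined selectivity score with lowered wild-type GFP, culture density cut under 30%, mutant RFP and density less affected; inactive = any of these conditions unmet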; note: one replicate is shown; some compounds called inactive have numbers as strong as hits
# Calb FLC: affects C. albicans growth with fluconazole; growth inhibition, % (test concentration not listed); hit rate 0.57% among 300,000; C. albicans CaCi-2 (fluconazole-resistant clinical isolate) + fluconazole, Alamar Blue growth, 48 h;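 active = most replicates above 75%; inconclusive = exactly half above 75%; inactive = most below 75%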;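 note: all wells also contain fluconazole at 8 µg/ml as a sub-toxic cotreatment; 0% = median of DMSO wells and 100% = median of geldanamycin control wells; wells of about 8 µL received 7.5 nL stock; the first replicate is given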
# Bfl-1 A1 inh: inhibitors of the anti-apoptotic protein A1, read as caspase activation | MEF A1-2A-BIM cells, Caspase-Glo 3/7 luminescence, 3 h; percent of clofoctol response, vehicle zero | caspase activation, % (concentration not given with the values) | hit rate 0.066% among 330,000;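 active = over half of replicate activation scores above 10%, or exactly half above 10 with the replicate mean above 10; inconclusive = replicate mean below 10 yet half the replicates above 10; inactive = over half of replicates below 10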;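 note: wells of about 30 µL received 50 nL stock; many hits fall short of the cut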
# RanGTP-Imp inh: disruptors of Ran-importin-beta complex formation – biochemical, FRET, CFP-Ran, YFP-importin-beta, homogeneous, primary screen. cell-free CFP-Ran/YFP-importin-beta FRET ratio. inhibition, % (no concentration beside the values). hit rate 1.1% among 300,000;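 active = most replicates above 15%; inconclusive = exactly half above 15%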;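 note: 0% = DMSO wells and 100% = Ran loaded with GDP instead of GTP; wells of about 40 µL received 100 nL stock; the first replicate is given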
# T cruzi inh: T. cruzi replication inhibition; hit rate 1.4% among 300,000; inhibition, % (concentration not given with the values); T. cruzi beta-gal in NIH3T3, luminescence, 90 h;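 active = mean inhibition across valid replicates above about 55%, limit read from the data; inconclusive = mean below that limit but half or more replicates reach it; inactive = mean below it, under half of replicates reach it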;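 note: signal also drops with host cell toxicity which is not excluded here; 0% = plate median of DMSO wells and 100% = zero luminescence signal; higher percent means less beta-gal luminescence so fewer parasites; stock transfer was 50 nL into about 50 µL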
# Vif TR-FRET: HIV-1 Vif–A3G interaction blockers – biochemical, TR-FRET, GST-Vif 1-94, biotin-A3G peptide, dose response retest, primary screen (AID 1117319); TR-FRET GST-Vif / biotin-A3G peptide binding; higher % means a stronger effect; test concentration not given here; strong numbers were not always called active; inhibition, %, or IC50 in µM where a hit was titrated; hit rate 0.57% among 260,000;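 active = above the screen mean plus three standard deviations and confirmed in dose response; inconclusive = results disagree or hit not tested in dose response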;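 note: Vif residues 1-94 fused to GST binding biotinylated APOBEC3G peptide 110-148; 0% = full assay without inhibitor and 100% = GST in place of GST-Vif; retest series ran down from 100 µM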
# MLL AF4-AF9 inh: blocks AF4 peptide binding to human AF9. P42568. AlphaScreen, biotin-AF4 peptide binding to FLAG-AF9. inhibition, % at 10 µM. hit rate 0.47% among 350,000. AID 651704;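 active = every replicate reaching a set inhibition limit, whatever the replicate mean, cut at about 25% in these data; inconclusive = mean inhibition reaches that limit but some replicates miss it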;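 note: 0% = plate neutral control median and 100% = total signal loss; the record names both 10 and 1 µM as test concentration; the first replicate is given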
# Target sequence (P42568 whole entry, looked up): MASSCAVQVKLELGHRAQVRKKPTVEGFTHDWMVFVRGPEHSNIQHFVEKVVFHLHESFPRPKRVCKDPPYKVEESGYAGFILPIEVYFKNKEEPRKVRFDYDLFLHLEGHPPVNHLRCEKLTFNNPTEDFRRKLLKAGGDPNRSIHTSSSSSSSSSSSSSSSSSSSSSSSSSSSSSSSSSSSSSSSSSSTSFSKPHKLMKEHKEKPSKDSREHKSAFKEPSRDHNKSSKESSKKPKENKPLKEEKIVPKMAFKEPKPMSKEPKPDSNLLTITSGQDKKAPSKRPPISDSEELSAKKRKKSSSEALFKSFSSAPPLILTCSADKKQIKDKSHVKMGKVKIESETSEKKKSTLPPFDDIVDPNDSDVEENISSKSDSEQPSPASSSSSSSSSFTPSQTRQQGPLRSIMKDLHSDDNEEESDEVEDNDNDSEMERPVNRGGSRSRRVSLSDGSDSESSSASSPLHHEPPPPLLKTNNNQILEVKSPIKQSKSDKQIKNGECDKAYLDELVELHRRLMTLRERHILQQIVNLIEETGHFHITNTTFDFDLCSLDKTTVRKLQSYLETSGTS
# Ecoli rRNA inh OD600: second read-out of Ecoli rRNA inh, no call of its own (marks repeat the call); OD600 change, %; measured here: OD600 growth;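 optical density of the mix in the first replicate; 0 = DMSO median and -100 = no signal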
# Ecoli rRNA inh RFP: also measured in Ecoli rRNA inh; calls as there; RFP signal change, %; measured here: RFP humanized mutant strains;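 first replicate; 0 = DMSO median and -100 = no signal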
# Active calls of the source: *; ? = inconclusive; · = no result given.
SMILES,Beta apoptosis,Ecoli rRNA inh,Ecoli rRNA inh OD600,Ecoli rRNA inh RFP,Calb FLC,Bfl-1 A1 inh,RanGTP-Imp inh,T cruzi inh,Vif TR-FRET,MLL AF4-AF9 inh
Cc1ccc(C(=O)NCC(=O)NCCSc2ccc(Br)cc2)cc1,-1,1,7,-1.8,2,-1.0,-5.1,3,-3%,-11
CC(=O)NCC(=O)NC1CCCc2c1cnn2-c1ccccc1F (stereo unspecified),-7,18,24,2.1,9,0.0,4.4,-29,·,-4.7
C/C(O)=C\c1nc2ccccc2oc1=O,-24,·,·,·,0,0.4,-4.9,-41,8%,·
Cc1ccsc1/C=N/NC(=O)c1ccc(Cn2cc(Br)cn2)o1,7,·,·,·,8,-2.0,0.7,4,·,·
Cc1ccc(CN2CCN(Cc3cn(C)nc3-c3ccccc3)CC2CCO)o1 (stereo unspecified),-2,13,9,2.0,-14,-0.4,2.1,-3,3%,-3.7
Cc1ccc(CNC(=O)CCS(=O)(=O)c2cccc3nsnc23)cc1,-5,·,·,·,7,0.5,9.5,5,-15%,·
CC(NC(=O)COc1cccc(Br)c1)C(=O)O (stereo unspecified),-3,4,-4,3.6,-4,-5.6,-0.1,-11,5%,-22
C=C(C)Cn1c(C)cc(C)c(S(=O)(=O)c2ccccc2C)c1=O,·,·,·,·,1,0.9,1.1,3,71%,·
CCOC(=O)C1CCN(C(=O)c2cc(-c3ccncc3)nc3ccccc23)CC1,1,12,5,4.1,·,0.0,·,·,-9%,-3.1
CN1CCN(c2ccc([N+](=O)[O-])cc2/C=N/NC(=O)c2cccc([N+](=O)[O-])c2)CC1,1,-5,-4,-2.3,-4,0.6,-0.8,25,0%,2.4
COc1ccccc1Nc1nc(N)nc(CN2CCCCC2)n1,-6,4,-18,-0.3,-6,0.8,9.2,-13,1%,3.0
COc1ccc(Cl)cc1S(=O)(=O)NC(C)C(=O)NCc1ccc2c(c1)OCO2 (stereo unspecified),·,-3,-5,1.0,11,0.3,2.6,19,·,5.2
Cc1cc(C(=O)N2CCN(S(=O)(=O)c3ccccc3C#N)CC2)c(C)o1,2,6,-3,-0.2,·,1.1,·,·,·,-1.9
O=C(O)c1cc(Cl)c(Cl)cc1C(=O)N1CCOCC1,-5,10,14,0.2,-1,-0.5,-0.6,-10,-2%,-211
CCOC(=O)c1c(C)[nH]c(C)c1C(=O)COC(=O)/C=C/c1cccc(Cl)c1,-3,·,·,·,2,2.0,-1.5,-6,·,·
O=C(NC1CC2CCCC(C1)N2C(=O)NC1CCCCC1)c1ccc(F)cc1 (stereo unspecified),-2,·,·,·,-1,0.1,2.7,-9,-2%,·
COc1ccc(CCNC(=O)COc2ccc(-c3ccc(C#N)cc3)cc2)cc1,-4,15,12,-1.7,-18,-0.3,1.6,5,-2%,3.3
N#CCC(=O)N1CCN(C(c2ccccc2)c2ccccc2)CC1,·,5,2,-0.5,-13,0.0,-4.8,·,·,-0.2
Cn1c(SCC(=O)NC2CCCCC2)nnc1-c1cccnc1,1,13,16,1.6,1,1.2,-5.2,3,·,3.3
COc1ccc(OC)c(C2NC(=O)CCC2[N+](=O)[O-])c1 (stereo unspecified),-13,14,7,-0.5,0,0.0,1.5,-8,-3%,2.7
N#Cc1cc(C(=O)c2cc(F)ccc2O)cn(Cc2ccccc2)c1=O,8,-24*,-4.5*,1.5*,2,-0.7,5.2,-16,-2%,5.3
Cc1nc(C(=O)N(C)C)nn1-c1cc(Cl)ccc1Cl,-9,·,·,·,0,-0.2,0.3,-5,?,·
Fc1ccccc1-c1nc2ncccc2o1,7,19,4,1.4,12,-2.1,2.2,0,-3%,1.1
O=c1c(S(=O)(=O)c2ccc(Cl)cc2)cn(Cc2ccccc2F)c2ccc(F)cc12,·,10,3,2.7,-5,0.4,0.3,18,·,-14
CC1OC(OC2C(OC3C(O[C@H]4CC[C@]5(C)C6C=C[C@]78OC[C@@]9(CC[C@@H](C)[C@H](C)C97)[C@H](O)C[C@@]8(C)[C@]6(C)CC[C@H]5C4(C)C)OC(C)C(O)C3O)OC(CO)C(O)C2O)C(O)C(O)C1O (stereo partly specified),·,·,·,·,36,·,-0.7,35,11%,·
COc1ccccc1N1CCN(CC(=O)Nc2cccc(F)c2)CC1,3,·,·,·,24,-0.3,0.7,-8,-6%,·
COCCCNC(=O)C12CCC(C)(C(=O)C1)C2(C)C (stereo unspecified),3,·,·,·,-4,1.9,-0.7,-2,-5%,·
C=CCc1c(NCCO)nc(C)[nH]c1=O,-6,·,·,·,-22,0.1,-4.9,-16,-5%,·
O=C(NCCN1CCOCC1)c1ccc(Cl)cc1O,-6,0,2,0.1,0,-1.1,-2.9,0,·,-4.6
CC1CCCCN1c1ncnc(N)c1[N+](=O)[O-] (stereo unspecified),-14,12,6,-6.5,-4,-0.9,-1.8,-11,2%,-2.6

# Some entries already given, showing only Bfl-1 A1 inh, Beta apoptosis and Ecoli rRNA inh OD600.
compound	Bfl-1 A1 inh	Beta apoptosis	Ecoli rRNA inh OD600
CCOC(=O)c1c(C)[nH]c(C)c1C(=O)COC(=O)/C=C/c1cccc(Cl)c1	2.0	-3	·
O=C(NC1CC2CCCC(C1)N2C(=O)NC1CCCCC1)c1ccc(F)cc1 (stereo unspecified)	0.1	-2	·

# Following part
SMILES,Beta apoptosis,Ecoli rRNA inh,Ecoli rRNA inh OD600,Ecoli rRNA inh RFP,Calb FLC,Bfl-1 A1 inh,RanGTP-Imp inh,T cruzi inh,Vif TR-FRET,MLL AF4-AF9 inh
CN1CCN(c2ccc(-c3cccc(NC(=O)COc4ccc(Cl)cc4Cl)c3)nn2)CC1,·,-6,-6,2.0,?,-12,-4.7,54,-3%,-0.8
CN(C)CCCN(Cc1cc2cc3c(cc2[nH]c1=O)OCO3)C(=S)Nc1ccccc1,-9,8,3,1.1,-16,0.0,9.4,19,25%,4.5
CN(CC(=O)Nc1ccccc1Br)C(=O)c1cc2c(s1)CCCCC2,-1,0,5,0.8,-5,-0.2,-0.8,-10,0%,-17
O=C(Cn1c(=O)oc2ccccc21)N1CCN(S(=O)(=O)c2ccccc2)CC1,0,17,8,4.0,·,1.3,·,·,88%,-1.6
COc1ccc(C(=O)NCCc2nnc(SCC(=O)Nc3ccccc3C(C)C)n2C)cc1,-4,·,·,·,7,-0.5,-1.5,-10,3%,·
O=C(O)CCCNS(=O)(=O)c1ccc(NCc2ccccc2)c(C(=O)O)c1,-2,·,·,·,-1,0.7,4.3,-11,?,·
CC(C)OC(=O)CSc1nnc(CNc2ccc(Cl)cc2)n1Cc1ccccc1,1,·,·,·,-1,0.6,?,4,-4%,·
Cc1cc(NC(=O)COC(=O)C2CCN(C(=O)c3ccc(Cl)cc3)CC2)no1,-2,·,·,·,31,0.1,6.1,0,21%,·
Cc1cc(NC(=O)c2ccc(S(=O)(=O)Nc3ccccc3)cc2)no1,-1,·,·,·,12,-0.9,-1.9,1,5%,·
CCOC(=O)NN1C(=O)c2ccccc2NC1c1ccccc1 (stereo unspecified),-1,·,·,·,-19,0.1,-3.0,-3,-1%,·
CC(=O)N1CCN(CC(c2ccccc2)c2ccccc2)CC1,-2,-7,-3,-1.7,-4,1.5,0.9,5,·,-2.4
NC(=O)C1CCN(C(=O)c2ccc(OCC(=O)Nc3cccc(C(F)(F)F)c3)cc2)CC1,-2,5,3,-0.8,5,0.5,·,-6,11%,1.6
COCCNS(=O)(=O)c1cc(OC)c(C)cc1C,-5,-1,9,-3.9,-4,1.6,3.1,-14,·,-0.9
Cc1ccc(NC(=O)CN(C)C(=S)NC2CC2)cc1,1,0,7,-3.2,-25,0.8,2.4,-25,-3%,-2.9
Cc1cnc(C(=O)OCC(=O)Nc2ccc(Br)cc2F)cn1,-3,5,4,0.3,·,-0.8,·,·,-19%,0.8

# Fetched by structure from the list above, 5 records:
SMILES,Beta apoptosis,Ecoli rRNA inh,Ecoli rRNA inh OD600,Ecoli rRNA inh RFP,Calb FLC,Bfl-1 A1 inh,RanGTP-Imp inh,T cruzi inh,Vif TR-FRET,MLL AF4-AF9 inh
Cc1cnc(C(=O)OCC(=O)Nc2ccc(Br)cc2F)cn1,-3,5,4,0.3,·,-0.8,·,·,-19%,0.8
COCCNS(=O)(=O)c1cc(OC)c(C)cc1C,-5,-1,9,-3.9,-4,1.6,3.1,-14,·,-0.9
O=C(Cn1c(=O)oc2ccccc21)N1CCN(S(=O)(=O)c2ccccc2)CC1,0,17,8,4.0,·,1.3,·,·,88%,-1.6
CN1CCN(c2ccc(-c3cccc(NC(=O)COc4ccc(Cl)cc4Cl)c3)nn2)CC1,·,-6,-6,2.0,?,-12,-4.7,54,-3%,-0.8
CCOC(=O)NN1C(=O)c2ccccc2NC1c1ccccc1 (stereo unspecified),-1,·,·,·,-19,0.1,-3.0,-3,-1%,·

# Next part
SMILES,Beta apoptosis,Ecoli rRNA inh,Ecoli rRNA inh OD600,Ecoli rRNA inh RFP,Calb FLC,Bfl-1 A1 inh,RanGTP-Imp inh,T cruzi inh,Vif TR-FRET,MLL AF4-AF9 inh
CCOC(=O)C1(CC2CCCCO2)CCN(C(=O)Nc2ccc3c(c2)OCO3)CC1 (stereo unspecified),-2,-2,-14,0.1,-10,-0.3,22*,-11,2%,0.2
Cc1c(C(=O)OCC(=O)N2CCCC(C)C2)oc2ccccc12 (stereo unspecified),-6,-9,-28,1.3,1,0.3,3.1,-2,0%,-9.0
Cc1ccc(NC(=O)COc2ccc(Br)cc2CO)cc1,-1,·,·,·,-7,-0.5,4.2,-4,-6%,·
COc1ccc(-c2ccc(CNCc3ccccn3)o2)cc1Cl,-3,·,·,·,9,-3.7,5.4,-7,·,·
Cn1cccc1CC(=O)NNC(=S)Nc1ccc(Cl)cc1Cl,-3,·,·,·,9,-0.1,1.3,-4,·,·
CCCCn1c(N)c(N(CC(C)C)C(=O)CCCn2c(=O)oc3ccccc32)c(=O)[nH]c1=O,-2,0,-1,-0.8,5,0.4,-2.1,1,5%,-12
O=C(Nc1c2c(nn1-c1cccc(Cl)c1)CS(=O)(=O)C2)c1ccco1,-3,4,11,1.7,-3,-0.6,?,8,·,0.2
CC(C)(C)NC(=O)COC(=O)c1ccccc1NC(=O)c1ccco1,-9,·,·,·,-5,0.2,4.1,-4,·,-1.1

# Some of the compounds tested; the hit share may differ from the screen's.
